HCMV UL50-53 inh: cytomegalovirus nuclear egress complex inhibition; inhibition, % (test concentration not listed); hit rate 0.15% among 190,000; HTRF UL50-UL53 interaction, normalized percent inhibition;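 active = both replicates at 50% or more, plus weaker picks with an unusually low signal ratio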;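 note: stock transfer was 100 nL into about 20 µL; 0% = negative control wells and 100% = wells with untagged competitor protein; inactives centre near -12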
Sa growth 42C: blocks Staphylococcus aureus growth. S. aureus RN4220 growth, OD600, 20 h, 42 °C; active compounds read low. relative growth, % (concentration not given with the values). hit rate 0.53% among 170,000. AID 720641;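 active = growth at 42 °C up to 50% and 20 or more points under that at 30 °C, or under 10% at both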;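 note: 300 nL library stock went into each well; scaled to the means of positive and negative controls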
GIV Gai3 FP: GIV-Galpha-i interaction inhibition. Galpha-i3/FITC-GIV peptide fluorescence polarization, 90 min; active compounds read low; scaled: aluminum fluoride 0%, vehicle 100%. percent of control (FP), % (concentration not given with the values). hit rate 0.42% among 210,000;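 active = replicate mean at 85% of control or lower, very high polarization wells dropped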;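 note: wells of about 15 µL received 100 nL stock; the first replicate is given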
Target sequence (P08753 whole entry, looked up): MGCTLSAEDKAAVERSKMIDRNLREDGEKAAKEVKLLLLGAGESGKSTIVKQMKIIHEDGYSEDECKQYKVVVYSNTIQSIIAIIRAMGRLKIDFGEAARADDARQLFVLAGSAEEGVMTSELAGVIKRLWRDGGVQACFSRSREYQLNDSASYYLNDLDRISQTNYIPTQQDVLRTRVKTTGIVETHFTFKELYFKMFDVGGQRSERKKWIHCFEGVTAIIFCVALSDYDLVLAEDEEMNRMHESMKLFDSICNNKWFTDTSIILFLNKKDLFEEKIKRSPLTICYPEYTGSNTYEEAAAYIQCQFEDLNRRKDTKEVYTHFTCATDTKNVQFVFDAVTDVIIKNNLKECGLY
Sa growth 42C second temp: recorded beside Sa growth 42C, whose call it bears; relative growth, %; measured here: growth at 30 °C;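 optical density after 20 h as mean of two plates; 100% = untreated growth and lower means inhibition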
An asterisk follows results filed as active; · = no result given; & = joins results of further samples.

cpd	mol	HCMV UL50-53 inh	Sa growth 42C
1	COC(=O)c1c(C)oc(C)c1S(=O)(=O)N(Cc1ccccc1)C(C)C	-22	98
2	Cc1c(Cl)cccc1NC(=O)C(C)n1c(=O)cc(-c2ccccc2)c2c(C)nn(C)c21 (stereo not given)	·	99
3	S=c1[nH]nc(Cn2nnc3ccccc32)o1	-14	89
4	CSc1c(-c2ccc(Cl)cc2)[nH]c2ccccc12	-15	21*
5	CCOC(=O)C1CCN(c2nnnn2-c2ccccc2)CC1	8	86
6	CC(C)(C)OC(=O)N1CCC(C(=O)O)CC1	-10	97
7	COc1ccc(NC(=O)c2cc(S(=O)(=O)N3CCOCC3)ccc2OC)cc1	·	116
8	COCC(C)n1c(C)cc(C(=O)CSc2ncccn2)c1C (stereo not given)	-29	104
9	CC(C)n1ncc2cc(N)cnc21	-25	78
10	CC1(C)CC(=O)C2=C(C1)N(c1c(F)cccc1F)C(N)=C(C#N)C2c1ccsc1 (stereo not given)	-15	92

cpd	Sa growth 42C second temp	GIV Gai3 FP
1	84	99
2	93	107
3	77	101
4	49*	102
5	94	·
6	92	103
7	94	99
8	97	·
9	93	·
10	88	·

Complete entries, looked up by structure. Values in the order: HCMV UL50-53 inh, Sa growth 42C, Sa growth 42C second temp, GIV Gai3 FP
`CC(C)n1ncc2cc(N)cnc21` is listed as -25, 78, 93, ·
`CC(C)(C)OC(=O)N1CCC(C(=O)O)CC1` is listed as -10, 97, 92, 103

Next compounds.
cpd	mol	HCMV UL50-53 inh	Sa growth 42C
11	Fc1ccc(OCc2nnc3sc(-c4ccncc4)nn23)cc1	10	·
12	CN1CCN(C(c2ccccc2)c2sc3nc(-c4ccco4)nn3c2O)CC1 (stereo not given)	·	138
13	Cc1ccc(CCNC(=O)c2ccc(CS(=O)(=O)Cc3cccc(C)c3)o2)cc1	·	99
14	N#Cc1nc(-c2ccccc2)oc1NCCCN1CCOCC1	-22	95
15	CCOc1ccc(CCNC(=O)c2c3c(nc4ccccc24)C(=O)N(C2CCCCC2)C3)cc1	·	75
16	O=c1oc2ccccc2n1CCn1c2ccccc2c2nc3ccccc3nc21	-28	98
17	COc1ccc(/C=C2\C(=O)NC(=O)N(c3cccc(C)c3)C2=O)c(OC)c1OC	-20	·
18	c1ccc(-c2cnnc(N3CCCC3)n2)cc1	-63	78
19	COC(=O)c1cc2sc(Cl)cc2n1CC(=O)Nc1ccc(C)c(C)c1	·	96
20	COCCNCc1ccc(-c2ccc(Br)cc2)o1	-45	·

cpd	Sa growth 42C second temp	GIV Gai3 FP
11	·	99
12	89	94
13	88	100
14	89	·
15	95	97
16	67	98
17	·	103
18	62	102
19	93	109
20	·	103

(next part)
cpd	mol	HCMV UL50-53 inh	Sa growth 42C
21	CCC12CN3CC(CC)(CN(C1)C3c1ccc(OCc3ccccc3)cc1)C2=O (stereo not given)	-20	101
22	CCC1(C)CC(=O)c2c(ccc3oc(C(=O)NCc4ccccc4)c(C)c23)O1 (stereo not given)	-11&3	98
23	CN(C)/C=N/c1c(C#N)cnn1-c1ccccc1	5	99
24	O=c1cc(CSc2nnc(-c3ccccc3)n2Cc2ccc3c(c2)OCO3)nc2sccn12	-3	105
25	CC(=O)Nc1ccc(I)cn1	-3	·
26	Cc1ccc(S(=O)(=O)N2CCN(C(=O)COC(=O)c3ccc(O)cc3)CC2)cc1	-3	97
27	O=C1c2ccccc2C(=O)N1CC(O)CN1CCOCC1 (stereo not given)	-27	122
28	CCCCC1CC(CSc2ncn[nH]2)OC1=O (stereo not given)	-8	101
29	CCOC(=O)c1cnc2ccc(OCC)cc2c1Nc1ccc(OCc2ccccc2Cl)cc1	-11	99
30	COC(=O)c1ccc(CN2C(=O)NC(Cc3ccccc3)(Cc3ccccc3)C2=O)o1	-13	93

cpd	Sa growth 42C second temp	GIV Gai3 FP
21	88	102
22	81	108&100
23	108	106
24	80	·
25	·	100
26	106	·
27	112	103
28	85	99
29	84	104
30	97	·

Remaining list, next part
cpd	mol	HCMV UL50-53 inh	Sa growth 42C
31	CCN1CCCC1CNC(=O)c1nn(C)c2c1CSc1ccccc1-2 (stereo not given)	-15	88
32	COC(=O)c1sccc1-c1ccc(/C=C(\C#N)S(C)(=O)=O)o1	1	87
33	O=C(Sc1cccs1)c1cncc(C#Cc2ccccc2)c1	-8	98
34	CCN1CCN(C(c2ccccc2Cl)c2c(O)cc(C)n(Cc3ccco3)c2=O)CC1 (stereo not given)	·	96
35	Cc1nc(CSCC(=O)O)cs1	4	121
36	CC(=O)Nc1ccc(S(=O)(=O)N(C2=NCC(C)S2)c2ccccc2)cc1 (stereo not given)	0	99
37	Nc1nnc(SCC(=O)c2cccs2)s1	-56	105
38	Cc1c(CCC(=O)NCCc2ccc(Cl)cc2)c(=O)oc2c(C)c(O)ccc12	-21	113
39	CCc1ccnc(NS(=O)(=O)c2cccs2)c1	0	101
40	O=C1NC(=S)N/C1=C/c1ccc(OCc2ccc(Cl)cc2Cl)cc1	-23	·

cpd	Sa growth 42C second temp	GIV Gai3 FP
31	90	103
32	108	99
33	43	103
34	86	101
35	99	·
36	106	104
37	92	·
38	91	98
39	88	107
40	·	102

Next records
cpd	mol	HCMV UL50-53 inh	Sa growth 42C
41	Cc1nn(-c2ccccc2)c(OC(=O)c2cccc(Br)c2)c1S(=O)(=O)c1ccccc1	15	119
42	CCC(CO)NCc1ccc(-c2ccc(Br)cc2)o1 (stereo not given)	-41	·
43	Cn1c(=O)c2sccc2n2c(CCC(=O)N3CCN(c4ccc(F)cc4)CC3)nnc12	2	98
44	Cc1ccccc1Nc1nnc(SCC(=O)NC(C)(C#N)C(C)C)s1 (stereo not given)	5	104
45	Cc1cc(C)n(-c2ccc(C(=O)NCCc3c[nH]c4ccccc34)cc2)n1	-22	101
46	CC1(C)C(=O)Nc2ccccc2N1C(=O)COC(=O)c1ccccn1	-16	86
47	CC1(C)CC(=O)C2=C(C1)Oc1ccccc1C2CC(=O)c1cccs1 (stereo not given)	·	112
48	CCN(CC)c1ccc(CNCCCSc2nnnn2C)cc1	-22	109
49	CC(C)(C)SCCC(=O)N1CCN(c2ncc(C(F)(F)F)cc2Cl)CC1	-6	106
50	COc1ccc(CCN2C(=O)CN(C3CCCCCC3)C(=O)C2c2ccc(Cl)cc2)cc1OC (stereo not given)	·	107

cpd	Sa growth 42C second temp	GIV Gai3 FP
41	92	105
42	·	105
43	103	110
44	98	·
45	75	·
46	86	·
47	88	106
48	89	103
49	97	104
50	91	104

Additional structures
cpd	mol	HCMV UL50-53 inh	Sa growth 42C
51	Oc1c(C(c2ccccn2)N2CCN(c3ccccn3)CC2)ccc2cccnc12 (stereo not given)	-51	56
52	CSc1ccc(CCNC(=O)CCc2c(C)nc3c4cccnc4nn3c2C)cc1	-5	112
53	COc1ccccc1N1CCN(C(=O)c2c(-c3ccc(C)cc3)nnc3ccccc23)CC1	-49	·
54	CCC(=O)Nc1c(C)nc(Nc2ccc(OC)cc2)nc1Nc1ccc(OC)cc1	0	·
55	CC1=C(C(=O)OCC2CCCCC2)C(c2ccc(F)cc2F)CC(=O)N1 (stereo not given)	-3	108
56	O=C(CN1c2ccc(F)cc2-c2ccccc2S1(=O)=O)N1CCc2ccccc2C1	-27	·
57	CN=C1S/C(=C\c2cn(CC(=O)NCc3ccco3)c3ccccc23)C(=O)N1C	5	88
58	CN1C(C(=O)c2ccccc2)=C(OC(=O)c2ccc(F)cc2)c2ccccc2S1(=O)=O	1	·
59	COc1ccc(-c2cc(C(=O)NCc3ccc(F)cc3)no2)cc1	-24	104
60	Oc1cc2c(cc1O)C(c1ccccc1)CNCC2 (stereo not given)	-21&-39	·

cpd	Sa growth 42C second temp	GIV Gai3 FP
51	82	·
52	85	105
53	·	94
54	·	102
55	92	104
56	·	107
57	95	105
58	·	106
59	110	107
60	·	105

(more compounds)
cpd	mol	HCMV UL50-53 inh	Sa growth 42C
61	Cc1cccc(Cn2c(SCc3ccc(C(=O)NCc4ccccc4F)cc3)nc3ccncc32)c1	-32	96
62	CC(C)c1ccc(C(CNC(=O)c2cc(=O)c3cc(Br)ccc3o2)N2CCOCC2)cc1 (stereo not given)	-38	·
63	Cc1ccc(-c2csc(-n3[nH]c(C)c(CC(=O)N(C)C)c3=O)n2)cc1	-14	·
64	CN(c1ccnc(C(=O)NC2CCCC2)c1)S(=O)(=O)c1ccccc1	-29	60
65	COc1ccc(Br)cc1CNC(=O)c1cccn1-c1cccnc1	-8	·
66	COc1ccc(CNC(=O)Cn2c(=O)oc3cc(S(=O)(=O)N4CCC(C)CC4)ccc32)cc1	2&-43	106
67	COc1ccc(C2Nc3ccccc3C(=O)N2Cc2ccco2)cc1COc1cc(C)c(Cl)cc1C(C)C (stereo not given)	-15	·
68	COc1ccc(CNCc2ccc3nccnc3c2)c(OC)c1	-49	·
69	CCCCN(C)CCCNC(=O)c1cc(-c2cccnc2)nc2ccccc12	·	69
70	CCCNCc1cc(OCC)c(OCC(N)=O)cc1Br	9	98

cpd	Sa growth 42C second temp	GIV Gai3 FP
61	85	99
62	·	107
63	·	95
64	52	99
65	·	117
66	83	101&96
67	·	105
68	·	100
69	78	101
70	99	102

Next part:
cpd	mol	HCMV UL50-53 inh	Sa growth 42C
71	COC(=O)C12CC3CC(C1)CC(C(=O)OC)(C3)C2	-3	96
72	O=C(NCc1ccccc1Cl)c1cnc2sc(N3CCCCC3)nn2c1=O	-19	82
73	CCCn1cnc2nc(CSc3ccccc3NC(=O)COc3ccccc3)cc(=O)n21	-37	·
74	COc1cc2c(cc1OC)n(Cc1ccc([N+](=O)[O-])cc1)c(=O)n1nc(-c3ccccc3)nc21	·	127
75	CC1(C)CC(=O)C2=C(C1)N(Cc1ccccc1)C(N)=C(C#N)C21CCOCC1	-20	99
76	C=C(C)[C@@H]1Cc2cc3ccc(=O)oc3cc2O1	-39	79
77	Cc1cc(Br)c(NC(=S)NC(=O)C(C)(C)C)c(Br)c1	-23	103
78	NN1C(=O)/C(=C/c2cccs2)SC1=S	-69	101
79	Cc1ccc(N(CC(=O)NC(C)(C)C)S(=O)(=O)c2c(C)nn(C)c2C)cc1	-5	·
80	CC(=O)Nc1ccc(N=Cc2ccc(C)cc2)cc1	·	120

cpd	Sa growth 42C second temp	GIV Gai3 FP
71	93	100
72	92	102&99
73	·	102
74	80	98
75	72	·
76	65	100
77	86	98
78	84	110
79	·	101
80	85	102

Shown with two lines to a compound: part of the list above
Value order – HCMV UL50-53 inh | Sa growth 42C | Sa growth 42C second temp | GIV Gai3 FP
(73) CCCn1cnc2nc(CSc3ccccc3NC(=O)COc3ccccc3)cc(=O)n21
    -37 | · | · | 102
(74) COc1cc2c(cc1OC)n(Cc1ccc([N+](=O)[O-])cc1)c(=O)n1nc(-c3ccccc3)nc21
    · | 127 | 80 | 98
(75) CC1(C)CC(=O)C2=C(C1)N(Cc1ccccc1)C(N)=C(C#N)C21CCOCC1
    -20 | 99 | 72 | ·
(76) C=C(C)[C@@H]1Cc2cc3ccc(=O)oc3cc2O1
    -39 | 79 | 65 | 100

Five compounds picked at random from those above:
cpd	mol	HCMV UL50-53 inh	Sa growth 42C
77	Cc1cc(Br)c(NC(=S)NC(=O)C(C)(C)C)c(Br)c1	-23	103
75	CC1(C)CC(=O)C2=C(C1)N(Cc1ccccc1)C(N)=C(C#N)C21CCOCC1	-20	99
71	COC(=O)C12CC3CC(C1)CC(C(=O)OC)(C3)C2	-3	96
79	Cc1ccc(N(CC(=O)NC(C)(C)C)S(=O)(=O)c2c(C)nn(C)c2C)cc1	-5	·
80	CC(=O)Nc1ccc(N=Cc2ccc(C)cc2)cc1	·	120

cpd	Sa growth 42C second temp	GIV Gai3 FP
77	86	98
75	72	·
71	93	100
79	·	101
80	85	102

Next records follow.
cpd	mol	HCMV UL50-53 inh	Sa growth 42C
81	O=C1CSc2ccc(C(=O)N3CCN(S(=O)(=O)c4ccc5c(c4)CCC5)CC3)cc2N1	-9	98
82	COc1cc(C(=O)NCCc2sc(-c3cccc(F)c3)nc2C)cc(OC)c1OC	·	85
83	CCc1nn2cc(-c3ccc(C)cc3)nc2s1	-11	118
84	C=CCSc1nnc2c(n1)OC(c1ccccn1)N(C(=O)CC)c1ccccc1-2 (stereo not given)	-84	102

cpd	Sa growth 42C second temp	GIV Gai3 FP
81	94	·
82	95	105
83	90	102
84	75	101

High-throughput results deposited in PubChem by ICCB-Longwood Screening Facility, Harvard Medical School.
